AID923: qHTS Assay for Allosteric/Competitive Inhibitors of Caspase-1: Spectroscopic Profiling in AFC Spectral Region; AID 923, 2007; compound fluorescence, AFC spectral region (405/520 nm); almost no hit is shown here; 75,000 tested, 1.1% active; Potency, µM (series often up to 57.5 µM), for inactives: at the top dose fluorescence increase, hits mostly activators; active = well fitted activation curve with a large enough effect; inconclusive = small, poorly fitted or top-dose-only effect;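 also: potency is read from the fitted curve at half-maximal effect; 0% is about no effect; scaled to a free AFC standard on each plate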
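Compound autofluorescence profiled at 405 nm ex/520 nm em during kinetic caspase 1 run (50 nM enzyme, 5 uM Ac-WEHD-AFC, HEPES pH 7.5, 10 mM DTT). Titration up to 57 uM; baseline from regression intercept, normalized to AFC standard curve.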
TSHR ag: qHTS Assay for Agonists of the Thyroid Stimulating Hormone Receptor | 73,000 tested, 0.48% active | HEK293-CNG-TSHR cells (CNG channel as cAMP sensor), membrane potential dye, cAMP | Potency, µM (doses to about 57.1 µM), without a hit: top-dose activation, most hits filed as activators; active = well fitted activation curve of enough size with the parental cells flat; inconclusive = any curve in the parental cells; inactive = parental cells flat and receptor cells flat or falling; also: potency is read from the fitted curve at half-maximal effect; % of control where 0% means no effect; weak receptor curves with flat parental cells got no call and are not listed
Target sequence (P16473 whole entry, looked up): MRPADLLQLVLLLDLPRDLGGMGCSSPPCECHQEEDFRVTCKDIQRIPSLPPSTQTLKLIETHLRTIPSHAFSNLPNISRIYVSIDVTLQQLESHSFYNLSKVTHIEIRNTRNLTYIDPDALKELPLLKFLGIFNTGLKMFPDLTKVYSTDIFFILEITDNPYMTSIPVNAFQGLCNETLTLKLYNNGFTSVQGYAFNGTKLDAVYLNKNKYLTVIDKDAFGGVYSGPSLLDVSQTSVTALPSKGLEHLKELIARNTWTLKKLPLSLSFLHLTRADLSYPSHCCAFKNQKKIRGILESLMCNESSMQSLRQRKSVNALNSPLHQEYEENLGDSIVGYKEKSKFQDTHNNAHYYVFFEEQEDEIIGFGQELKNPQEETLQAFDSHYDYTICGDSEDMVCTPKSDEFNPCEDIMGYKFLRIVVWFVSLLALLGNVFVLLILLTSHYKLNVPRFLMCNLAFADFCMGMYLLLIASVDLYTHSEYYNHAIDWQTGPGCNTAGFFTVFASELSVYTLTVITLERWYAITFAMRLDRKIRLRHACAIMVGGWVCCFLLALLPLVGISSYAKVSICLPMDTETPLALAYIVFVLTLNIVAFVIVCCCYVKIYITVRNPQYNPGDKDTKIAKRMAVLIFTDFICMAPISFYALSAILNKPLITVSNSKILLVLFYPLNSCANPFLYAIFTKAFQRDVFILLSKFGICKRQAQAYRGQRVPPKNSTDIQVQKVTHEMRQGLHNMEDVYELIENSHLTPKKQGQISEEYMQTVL
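HEK 293 cells stably expressing TSHR and a cAMP-gated CNG channel; parental CNG-only cells as counterscreen. Cells preloaded 60 min with membrane potential dye plus 100 uM RO 20-1724, then compound 30 min; fluorescence read at 590 nm.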
A488 autofl: qHTS Assay for Spectroscopic Profiling in A488 Spectral Region; compound autofluorescence, A488 spectral region, dye equivalency; active compounds read high; max dye equivalency, M; 59,000 tested, 0.1% active; AID 591, 2007; active = above 10 nM dye equivalent; inconclusive = 1 to 10 nM; inactive = 1 nM or less; about half of its hits are not listed in these tables;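 also: highest value over a series up to 38 µM; compound alone in buffer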
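Intrinsic compound fluorescence is measured in 100 mM Tris buffer at pH 8.0 following 15 min incubation at room temperature. Intensities at 480 nm excitation/540 nm emission are calibrated to an on-plate A488 concentration series, giving dye-equivalent concentrations.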
Resorufin fluor: qHTS Assay for Spectroscopic Profiling in Resorufin Spectral Region; 59,000 tested, 0.04% active; Compound fluorescence, resorufin region 547/598 nm, buffer; active compounds read high; AID 588, 2007; max dye-equivalent concentration, M; active = above 10 nM dye equivalent; inconclusive = 1 to 10 nM; inactive = 1 nM or less; a few of its hits are not listed in these tables; also: highest value over a series up to 38 µM
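Intrinsic fluorescence profiled in the resorufin window (ex 547 nm, em 598 nm) after 15 min at room temperature in pH 8.0 Tris buffer (100 mM); responses normalized against a six-point resorufin standard series as dye-equivalent concentration.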
A647 autofl: qHTS Assay for Spectroscopic Profiling in A647 Spectral Region | Compound fluorescence, A647 channel (570/671 nm), Tris buffer | max dye-equivalent concentration, M | 59,000 tested, under 10 active | AID 592, 2007; active means above 1 µM dye equivalent; inconclusive means 0.1 to 1 µM; inactive means 0.1 µM or less;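 also: values scaled relative to a standard on each plate; highest value over a series up to 38 µM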
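Fluorescence read (570 nm ex, 671 nm em) after 15 min RT incubation of compounds in 100 mM Tris buffer, pH 8.0; values expressed as dye-equivalent concentration against a six-point A647 standard series on each plate.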
Starred values were filed as active, the others as inactive; [ ] = another dose, or the depositor's remark.

`Cc1ccc(Cl)cc1N1CCN(C(c2cccnc2)c2nnnn2C2CCCCC2)CC1` (stereo not drawn) gave AID923 2.6%, TSHR ag 3.1%, A488 autofl inactive, Resorufin fluor inactive and A647 autofl 4.4e-09.
Screening COCc1nnc(NC(=O)c2ccc(S(=O)(=O)N3CCCCCC3)cc2)o1 returned AID923 1.1%, TSHR ag -0.9%, A488 autofl inactive, Resorufin fluor inactive and A647 autofl 1e-09.
`N#CCCn1c(=O)c(-c2cccc(C#N)c2)nc2cnc(Oc3ccccc3)nc21` gave AID923 10.5%, TSHR ag -8.9%, A488 autofl inactive, Resorufin fluor inactive and A647 autofl 2.75e-08.
For COc1ccc(-c2noc(C3CCCN(C(=O)c4ccccc4OC)C3)n2)cc1OC (stereo not drawn) the results were AID923 0.5%, TSHR ag inconclusive, A488 autofl inactive, Resorufin fluor inactive and A647 autofl 4.17e-08.
For CCN1C(=O)CC(N2CCC(Cc3ccccc3)CC2)C1=O (stereo not drawn) the results were AID923 0.3%, TSHR ag -5.5%, A488 autofl inactive, Resorufin fluor inactive and A647 autofl 4.89e-08.
Screening CCN(CCNC(=O)Cn1cc2c(n1)CCCC2)c1ccccc1 returned AID923 -2.9% and TSHR ag 12.4%.
`O=C(Nc1ccc(Cl)cc1)N(Cc1nnc2n1CCCCC2)c1ccccc1` gave AID923 -0.6%, TSHR ag 5.0%, A488 autofl inactive, Resorufin fluor inactive and A647 autofl 1e-09.
CC(=O)Nc1ccc(-c2cc(C(=O)O)c3cc4ccccc4cc3n2)cc1 was read as AID923 -0.2%[11.5 µM], TSHR ag -1.7%[11.4 µM], A488 autofl inactive, Resorufin fluor inactive and A647 autofl 4.2e-09.
`O=C1CCCN1CCC1CCN(C2CC(=O)N(c3ccc(Cl)cc3)C2=O)CC1` (stereo not drawn) gave AID923 -0.2%, TSHR ag inconclusive, A488 autofl inactive, Resorufin fluor inactive and A647 autofl 4.6e-09.
For CN(C(=O)c1ccccc1C(=O)O)C1CC(C)(C)NC(C)(C)C1 the results were AID923 3.0% and TSHR ag -0.7%.
`O=C(NC1CCSC1=O)c1cccc(C(=O)NC2CCSC2=O)c1` (stereo not drawn) gave AID923 0.9%, TSHR ag -2.4%, A488 autofl inactive, Resorufin fluor inactive and A647 autofl 7.24e-08.
`CC(C)(C)c1ccc(O)c(N)c1` gave A488 autofl inactive, Resorufin fluor inactive and A647 autofl 1e-09.
C=CC[C@@H]1C=C[C@@H](O/N=C(/C)CCC(=O)OC[C@@H]2O[C@H](C#Cc3ccccc3)C=C[C@@H]2Oc2ccc(C)cc2)[C@@H](CO)O1 was read as AID923 3.6%[11.5 µM] and TSHR ag 1.8%[11.4 µM].
CCOC(=O)c1c(C)[nH]c(C)c1C(=O)CSc1nnc(-c2cc(OC)c(OC)c(OC)c2)o1 was read as AID923 -0.6%, TSHR ag 14.0%, A488 autofl inactive, Resorufin fluor inactive and A647 autofl 3.14e-08.
For O=C(Nc1nnc(SCc2ccccc2)s1)c1cccs1 the results were AID923 1.1%, TSHR ag 20.5%, A488 autofl inactive, Resorufin fluor inactive and A647 autofl 2e-09.
Screening CCNC(=O)Cn1cnc2c1c(=O)n(C)c(=O)n2C returned AID923 -0.1%, TSHR ag -13.1%, A488 autofl inactive, Resorufin fluor inactive and A647 autofl 1.9e-08.
Screening COC(=O)/C=C/S(=O)(=O)c1ccc(NC(C)=O)cc1 returned AID923 3.0% and TSHR ag inconclusive.
Screening COc1ccc(C2c3c(oc4ccccc4c3=O)C(=O)N2CCN2CCOCC2)cc1OC (stereo not drawn) returned AID923 1.3%, TSHR ag 7.0%, A488 autofl inactive, Resorufin fluor inactive and A647 autofl 4.2e-09.
For O=C(Nc1cccc2ccccc12)OC1C=CS(=O)(=O)C1 (stereo not drawn) the results were AID923 -1.7%, TSHR ag inconclusive, A488 autofl inactive, Resorufin fluor inactive and A647 autofl 4.72e-08.
For CN(C)c1ccc2nc3c(C(=O)O)cc(=O)c(O)c-3oc2c1 the results were AID923 -0.7%[11.5 µM], TSHR ag -0.3%[11.4 µM], A488 autofl inactive, Resorufin fluor inactive and A647 autofl 1e-09.
`O=C(COc1ccccc1)OCc1cc2ccccc2[nH]c1=O` gave AID923 -0.4%, TSHR ag -0.6%, A488 autofl inactive, Resorufin fluor inactive and A647 autofl 2.96e-08.
Screening Cc1cc(C)c2[nH]c(=O)c(CN(Cc3nnnn3C3CCCC3)C3CCCCC3)cc2c1 returned AID923 1.5%, A488 autofl inactive, Resorufin fluor inactive and A647 autofl 1.91e-08.
`COc1cc(-n2nc(C)c3c2OC(N)=C(C#N)C3c2ccccc2)c(Cl)c(Br)c1O` (stereo not drawn) gave AID923 1.1%, TSHR ag -48.2%[inhibitor], A488 autofl inactive, Resorufin fluor inactive and A647 autofl 1.74e-08.
Screening CCCCN(CCCNc1ncnc2nc[nH]c12)c1ccccc1 returned AID923 2.1% and TSHR ag -1.2%.
For CCN(CC)S(=O)(=O)c1ccc(S(=O)(=O)Nc2cc3c(cc2C(C)=O)OCO3)cc1 the results were AID923 -0.7%, TSHR ag inconclusive, A488 autofl inactive, Resorufin fluor inactive and A647 autofl 3.9e-09.
`COCCNc1ccnc(-c2ccccc2CN(C)C)n1` gave AID923 0.7%, TSHR ag 4.0%, A488 autofl inactive, Resorufin fluor inactive and A647 autofl 2.27e-08.
For COc1ccc(-n2nnnc2SCC(=O)Nc2cccc(C)n2)cc1OC the results were AID923 -0.1%, TSHR ag 7.5%, A488 autofl inactive, Resorufin fluor inactive and A647 autofl 3.7e-09.
For COc1cc(O)c2c(c1)OC(C)(C)CC2=O the results were AID923 1.4%, TSHR ag -10.1%, A488 autofl inactive, Resorufin fluor inactive and A647 autofl 1e-09.
O=C1CC(C(=O)N2CCOCC2)C2(CCCC2)O1 (stereo not drawn) was read as AID923 -2.1%, TSHR ag -0.4%, A488 autofl inactive, Resorufin fluor inactive and A647 autofl 1e-09.
For COCCN1C(=O)c2ccc(C(=O)NCc3cccnc3)cc2C1=O the results were AID923 -0.3%, TSHR ag 4.6%, A488 autofl inactive, Resorufin fluor inactive and A647 autofl 6.19e-08.

Reprinted from the entries so far for reference:
`COCCNc1ccnc(-c2ccccc2CN(C)C)n1` gave AID923 0.7%, TSHR ag 4.0%, A488 autofl inactive, Resorufin fluor inactive and A647 autofl 2.27e-08.
For COc1ccc(-n2nnnc2SCC(=O)Nc2cccc(C)n2)cc1OC the results were AID923 -0.1%, TSHR ag 7.5%, A488 autofl inactive, Resorufin fluor inactive and A647 autofl 3.7e-09.
For COc1cc(O)c2c(c1)OC(C)(C)CC2=O the results were AID923 1.4%, TSHR ag -10.1%, A488 autofl inactive, Resorufin fluor inactive and A647 autofl 1e-09.
O=C1CC(C(=O)N2CCOCC2)C2(CCCC2)O1 (stereo not drawn) was read as AID923 -2.1%, TSHR ag -0.4%, A488 autofl inactive, Resorufin fluor inactive and A647 autofl 1e-09.
For COCCN1C(=O)c2ccc(C(=O)NCc3cccnc3)cc2C1=O the results were AID923 -0.3%, TSHR ag 4.6%, A488 autofl inactive, Resorufin fluor inactive and A647 autofl 6.19e-08.

The list continues.
`O=CN(Cc1ccco1)C1(C(=O)NC2CCCCC2)CCCCC1` gave AID923 0.2%, TSHR ag -0.6%, A488 autofl inactive, Resorufin fluor inactive and A647 autofl 4.31e-08.
For CC(=O)NC1(C(F)(F)F)NC(=O)N(CC(C)C)C1=O (stereo not drawn) the results were AID923 2.4%, TSHR ag -3.3%, A488 autofl inactive, Resorufin fluor inactive and A647 autofl 9.3e-09.
CC(C)OC(=O)c1c(NC(=O)CCn2nnc3ccccc32)sc2c1CCCC2 was read as AID923 3.3%, TSHR ag 11.6%[11.4 µM], A488 autofl inactive, Resorufin fluor inactive and A647 autofl 4.3e-09.
`CC(C)Cn1c(=O)c2c(c3ccccc31)OC(C)C(=O)N2` (stereo not drawn) gave AID923 1.4%, TSHR ag inconclusive, A488 autofl inactive, Resorufin fluor inactive and A647 autofl 8.1e-09.
COc1ccc(C(=O)NCC(=O)OCC(=O)NC(=O)NC2CCCCC2)cc1OC was read as AID923 -1.0%, TSHR ag 7.2%, A488 autofl inactive, Resorufin fluor inactive and A647 autofl 2.9e-09.
`O=C(C1CCCN(S(=O)(=O)c2ccc(Cl)cc2)C1)N(Cc1cccs1)C1CC1` (stereo not drawn) gave AID923 2.6%, TSHR ag inconclusive, A488 autofl inactive, Resorufin fluor inactive and A647 autofl 4.74e-08.
`Cn1c(-c2ccc(N)cc2)nc2ccccc21` gave AID923 0.1%, TSHR ag 1.1%, A488 autofl inactive, Resorufin fluor inactive and A647 autofl 2.97e-08.
N#CCSc1nnc(COc2cccc3ccccc23)n1-c1ccccc1 was read as AID923 1.0%, TSHR ag inconclusive, A488 autofl inactive, Resorufin fluor inactive and A647 autofl 3.23e-08.
Screening O=C(NCc1cccnc1)c1ccccn1 returned AID923 -1.7%, TSHR ag 6.4%, A488 autofl inactive, Resorufin fluor inactive and A647 autofl 1e-09.
For CC1(C)Cc2c(C#N)c(N)n(-c3ccccc3)c(=O)c2CO1 the results were AID923 -1.3%, TSHR ag -1.3%, A488 autofl inactive, Resorufin fluor inactive and A647 autofl 5.4e-09.
CCOC(=O)Cc1c(C)c2c(C)[nH]nc2oc1=O was read as AID923 4.8%, TSHR ag -6.2%, A488 autofl inactive, Resorufin fluor inactive and A647 autofl 3.11e-08.
`CCC(C)(C)NC(=O)CN(C(=O)c1snc(C(N)=O)c1N)c1ccc2c(c1)OCCO2` gave AID923 -2.2%, TSHR ag inconclusive, A488 autofl inactive, Resorufin fluor inactive and A647 autofl 9.1e-09.
CN(C(=O)c1ccc(Cl)cc1)C1=CCCCC1CCC#N (stereo not drawn) was read as AID923 -0.2%, TSHR ag 20.4%, A488 autofl inactive, Resorufin fluor inactive and A647 autofl 1e-09.
`CN1CCN(c2ncc3ncc(=O)n(Cc4ccc(F)cc4)c3n2)CC1` gave AID923 11.9%, A488 autofl inactive, Resorufin fluor inactive and A647 autofl 1.86e-08.
`COCCCNC(=O)C1CCC(=O)N1Cc1ccccc1Cl` (stereo not drawn) gave AID923 1.1%, TSHR ag 0.1%, A488 autofl inactive, Resorufin fluor inactive and A647 autofl 1.9e-09.
`Cc1nc(Nc2ccc(S(N)(=O)=O)cc2)oc1C` gave AID923 2.0%, TSHR ag -3.6%, A488 autofl inactive, Resorufin fluor inactive and A647 autofl 1e-09.
Screening CN(C)S(=O)(=O)c1ccc(C(=O)Nc2ccccc2C(=O)O)cc1 returned AID923 -2.2%, TSHR ag -1.3%, A488 autofl inactive, Resorufin fluor inactive and A647 autofl 5.6e-09.
Screening O=C(CCNS(=O)(=O)c1cccc2nonc12)NCCc1ccc(Cl)cc1 returned AID923 0.8%, TSHR ag -11.4%, A488 autofl inactive, Resorufin fluor inactive and A647 autofl 1e-09.
`Cc1cc(=Nc2ccc3c(c2)c(N)cc(C)[n+]3C)nc(N)n1C` gave AID923 -3.0%[11.5 µM], TSHR ag 0.6%[11.4 µM], A488 autofl inactive, Resorufin fluor inactive and A647 autofl 1e-09.
c1ccc(C2=NN[C@@H]3c4ccccc4-c4ccccc4N3C2)cc1 was read as AID923 -1.9%[11.5 µM], TSHR ag -1.2%[11.4 µM], A488 autofl inactive, Resorufin fluor inactive and A647 autofl 1e-09.
For COC(=O)c1ccccc1NC(=O)c1noc2c1CCC2 the results were AID923 -0.3%, TSHR ag 7.7%, A488 autofl inactive, Resorufin fluor inactive and A647 autofl 2.48e-08.

A portion of the library; the hit share may differ from the screen's.
